# TRPML1 agonist: qHTS for Agonists of the Human Mucolipin Transient Receptor Potential 1 (TRPML1) | AID 624414, 2012 | TRPML1-expressing cells, Ca2+ dye fluorescence, FDSS; host cell line not named in the record; reference of the full effect not given here | activation, % (no concentration beside the values) | hit rate 0.12% among 410,000 | Mucolipin-1 (Homo sapiens), Q9GZU1; in the data active = activation above about 50%; inconclusive = about 30% to 50%; inactive = below about 30%; further: 0% is about no effect; the text of the record puts the active cut at 80%
# Target sequence (Q9GZU1 whole entry, looked up): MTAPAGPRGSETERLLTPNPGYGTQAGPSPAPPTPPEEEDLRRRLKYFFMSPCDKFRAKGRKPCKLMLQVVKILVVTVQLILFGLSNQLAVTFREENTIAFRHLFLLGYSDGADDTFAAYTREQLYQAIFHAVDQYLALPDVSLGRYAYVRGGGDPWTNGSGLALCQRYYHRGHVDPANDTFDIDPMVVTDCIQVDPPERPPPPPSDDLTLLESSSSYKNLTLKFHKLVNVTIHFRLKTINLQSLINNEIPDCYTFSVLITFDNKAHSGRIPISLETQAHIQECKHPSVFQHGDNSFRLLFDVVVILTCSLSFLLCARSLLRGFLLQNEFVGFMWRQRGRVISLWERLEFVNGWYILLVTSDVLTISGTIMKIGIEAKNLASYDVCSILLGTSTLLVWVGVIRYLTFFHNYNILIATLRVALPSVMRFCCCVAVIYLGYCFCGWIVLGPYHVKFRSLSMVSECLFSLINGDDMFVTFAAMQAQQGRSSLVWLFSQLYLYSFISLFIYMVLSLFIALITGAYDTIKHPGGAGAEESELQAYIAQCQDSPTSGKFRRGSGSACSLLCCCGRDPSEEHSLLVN
#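 TRPML1-DL cells, Tet-induced overnight (~16 h, 37 degrees C), loaded 45-90 min at room temperature with Ca8 no-wash calcium dye plus quencher. FDSS fluorescence: 10 s baseline, compound pin-transfer, 110 s agonist read, then EC80 54-4 (4uM final) and 110 s antagonist read.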
# ClpP mod: qHTS Assay for Activators of ClpP; ATP-dependent Clp protease proteolytic subunit (Bacillus subtilis (strain 168)), P80244; purified B. subtilis ClpP, FRET peptide cleavage, 20 min; Potency, µM (top dose mostly 57.5 µM), for the others: at the top dose activity change, negative = active; hit rate 1.9% among 340,000; AID 651965, 2013; active = well fitted falling curve with a large enough effect; inconclusive = small, poorly fitted or top-dose-only effect; inactive = no such curve, though single readings can be large or run the other way; further: potency means the concentration at half of the fitted maximal effect; the source files actives as falling curves though it sought activators and does not explain the sign; nearly all actives have a fitted effect of over 65% in size; many hits overshoot -100%
# Target sequence (P80244 whole entry, looked up): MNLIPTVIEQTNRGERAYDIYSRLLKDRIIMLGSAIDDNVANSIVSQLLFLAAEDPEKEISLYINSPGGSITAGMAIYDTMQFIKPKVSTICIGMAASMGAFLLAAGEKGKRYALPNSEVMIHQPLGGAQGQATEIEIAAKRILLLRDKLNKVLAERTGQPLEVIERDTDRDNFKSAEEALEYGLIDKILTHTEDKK
#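 Buffer: 100 mM Tris/HCl pH8, 100 mM KCl, 0.05% low protease BSA, 2.5% glycerol, 0.01% Tween-20. ClpP 10 microg/mL final; 20 min RT; delta FRET normalized to ADEP and DMSO controls.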
# gsp antagonist: qHTS for Antagonists of gsp, the Etiologic Mutation Responsible for Fibrous Dysplasia/McCune-Albright Syndrome: qHTS. Potency, µM (highest dose often 76.9 µM), for the others: top-dose activity change, negative = inhibition, hits mostly inhibitors. hit rate 0.4% among 340,000. gsp-mutant cells, cAMP HTRF, 30 min; control for the full effect not named in the record; active = falling curve of any shape with a large fitted effect; inconclusive = falling curve, mostly with a smaller effect; inactive = flat or rising curve; cell line not stated here;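 further: intracellular cAMP measured with PDE inhibitor Ro 20-1724 present during compound exposure; potency means the concentration at half of the fitted maximal effect; on the % scale 0 is the no-effect control and ±100 the full control effect; nearly all actives have a fitted effect of over 65% in size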
#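 HTRF cAMP read-out (cAMP-d2 plus anti-cAMP antibody-K in lysis buffer, 30 min RT). Before lysis, cells are exposed to compounds with […] for 30 min at 37C in DPBS containing Ca/Mg, BSA and Tween 20.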
# gsp ag: qHTS for Agonist of gsp, the Etiologic Mutation Responsible for Fibrous Dysplasia/McCune-Albright Syndrome: qHTS; hit rate 0.13% among 340,000; Potency, µM (titrated, usually from 76.9 µM), for the others: top-dose activation (cAMP increase), hits mostly activators; gsp mutant cells, cAMP HTRF, 30 min; control for the full effect not named in the record; AID 624287, 2012; active = well fitted activation curve with a large enough effect; inconclusive = small, poorly fitted or top-dose-only effect, or another doubt; inactive = no such curve, though single readings can be large or run the other way; cell line not stated here;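 further: phosphodiesterase inhibitor Ro 20-1724 added with compounds to block cAMP breakdown; potency means the concentration at half of the fitted maximal effect; nearly all actives have a fitted effect of over 60% in size; about a fifth of the inactives were tested at one dose only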
#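 Cells stably selected in G418 were plated at 2000/well, grown 16-24 hr, then given compounds in DMSO with the PDE inhibitor […] (300 uM solution added) for 30 min at 37C; cAMP was read by HTRF.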
# Menin-MLL FL inh: qHTS Assay for Inhibitors Targeting the Menin-MLL Interaction in MLL Related Leukemias: Competition With Fluorescein Labeled MLL-derived Peptide; FP activity change, % at 61.4 µM; Fluorescence polarization, fluorescein-MLL peptide displacement from menin; 290,000 tested, under 10 active; AID 1766, 2009; inconclusive = falling polarisation curve, or a change in total fluorescence; inactive = total fluorescence flat and polarisation flat or rising; no compound was filed as active; the % refers to the polarisation; negative = inhibition;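 further: % of control where 0% means no effect; inhibitors lower the polarisation; unlabelled MLL peptide was the positive control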
# TRPML1 blocker: qHTS for Inhibitors of the Human Mucolipin Transient Receptor Potential 1 (TRPML1). TRPML1-inducible cells, Ca2+ dye fluorescence, FDSS; active compounds read low; inhibition of EC80 agonist-evoked calcium signal. hit rate 0.02% among 390,000. Mucolipin-1 (Homo sapiens), Q9GZU1. activity change, negative = inhibition, % (concentration not given with the values); in the data active means activity change below about -50%; inconclusive means about -30% to -50%; inactive means above about -30%;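 further: stimulus is agonist 54-4 at its EC80 concentration; on the % scale 0 is the no-effect control and ±100 the full control effect; the text of the record puts the active cut at -80%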
#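 Calcium fluorescence in TRPML1-DL cells induced overnight with Tet: a 110 s read after compound pin addition, then a 110 s antagonist read after challenge with 54-4 at 4 uM final (EC80).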
# * = called active by the depositor; ? = inconclusive; . = no result given; & = joins results of further samples; [ ] = another dose, or the depositor's remark. An excerpt; the hit share may differ from the screen's.
SMILES,TRPML1 agonist,ClpP mod,gsp antagonist,gsp ag,Menin-MLL FL inh,TRPML1 blocker
O=C(O)c1ccc(N=Cc2c(O)[nH]c(=O)[nH]c2=O)cc1,0.9,-3.1%,11%,9%[15.4 µM],-6.2,-6
CCC1CN1P(=O)(Oc1ccc(Cl)cc1)N1CC1CC (configuration not stated),-0.5,-0.8%,-10%,-1%[15.4 µM],.,0
Brc1ccccc1Cn1c(-c2cncs2)nc2ccccc21,1.5,-28%,-21%,?,-0.2,6
CCCCn1c(O)c(C(C)=NCCCN(C)C)c(=O)[nH]c1=O,0.3,-0.4%,8%,-38%[inhibitor],3.1,-19
O=C1CC(c2ccc(C(F)(F)F)cc2)c2c(c3ccccc3oc2=O)O1 (configuration not stated),-0.3,3.9%,.,.,.,3
CSc1ncc(/C=C2/C(=O)NC(=O)N(C3CCCCC3)C2=O)cn1,0.2,0.3%,-7%,-51%[inhibitor],?,0
CCCCC(CC)CNCC(O)c1ccccc1 (configuration not stated),-0.2,.,5%,6%[15.4 µM],-1.6,-10
CNC(=O)O/N=C/c1nn(C(=O)C(C)(C)C)cc1Br,-0.1,0.6%,2%,1%[15.4 µM],1.0,62
COc1ccc(N=Cc2c(O)n(Cc3ccccc3)c(=S)[nH]c2=O)c(OC)c1,0.2,-3.9%,7%,1%[15.4 µM],?,-5
CCOP(=O)(OCC)c1ccc(OP(=O)(c2cccc([N+](=O)[O-])c2)c2cccc([N+](=O)[O-])c2)cc1,-0.6,35µM*,9%,6%[15.4 µM],2.6,11
Cc1nc2ccccc2c(=O)n1-c1cc(F)ccc1F,-1.1,-0.8%,9%,-7%[15.4 µM],-5.2,17
CSc1ccccc1C(=O)C1CCCN(Cc2ccncc2)C1 (configuration not stated),-0.4,-0.7%,3%,26%,2.3,-9
CN(CC(=O)Nc1cccc(F)c1)CC(=O)Nc1cccc(S(=O)(=O)N(C)c2ccccc2)c1,0.9,1.1%,50µM*,-1%[15.4 µM],.,-29
CCCCCn1c(=O)c(C(=O)NCc2ccccc2)c(O)c2ccccc21,0.8,-16%,0%,-36%[inhibitor],0.2,-8
Cc1nn(Cc2ccccc2Cl)c(Cl)c1C(=O)OC(C(=O)NC(N)=O)C(C)C (configuration not stated),2.1,-0.3%,-6%,12%,0.8,23
O=C(C1c2ccccc2C(=O)N2CCc3ccccc3C12)N1CCC2(CC1)OCCO2 (configuration not stated),3.2,0.0%,-8%,-83%[inhibitor],9.5,-12
CCCCCn1c(=O)c(C(=O)Nc2ncccc2C)c(O)c2ccccc21,0.0,.,6%,-76%[inhibitor],2.4,0
CCCCOP(=O)(OCCCC)C1(C)CC(=O)CC(C)(C)C1 (configuration not stated),-0.1,.,-4%,27%,.,17
CNC(=O)Oc1ccc(-c2cn3cc(Cl)ccc3n2)cc1,1.5,8.9µM*,-8%,5%,4.6,5
Cc1ccccc1-n1c(O)c(C(c2ccncc2)c2c(O)n(-c3ccccc3C)c(=O)[nH]c2=O)c(=O)[nH]c1=O,-0.2&-0.3,2.0%,12%&9%,?,1.1&11,-16&3
Cc1cc(/C=C2/C(=O)NC(=O)N(c3ccccc3)C2=O)c(C)n1-c1ccc(F)cc1,-0.3,3.8%,23%,-57%[inhibitor],.,0
CC1(C)N(O)C2CCCCC2N1O (configuration not stated),-0.2,-18%,-3%,-17%,0.2,9
Cc1cc(N2CCCC2)ccc1C=C(C#N)C#N,2.5,0.5%,-3%,-6%,?,-2
COC(=O)C1=C(c2cccc(OCc3ccccc3)c2)C[C@@H]2CC[C@H]1N2C(=O)NCc1ccc(C(C)(C)C)cc1,1.9,-5.3%,-17%,-1%,.,28
COC(=O)C(O)(c1ccc(N=Cc2ccccc2O)c(C)c1)C(F)(F)F (configuration not stated),-1.3,0.8%,3%,-11%[15.4 µM],3.5,-2
Cc1ccc(NC(=O)c2ncn(CCCNCCN3CCOCC3)n2)cc1C,-0.1,-2.2%,-7%,.,.,12
CC(NCc1ccccc1Cl)C(O)c1ccccc1 (configuration not stated),1.4,-2.2%,-1%,6%,1.0,6
CCCNC(=O)Cn1cnc2sc(C(=O)N3CCC4(CC3)OCCO4)c(C)c2c1=O,-0.2,0.7%,-3%,-9%,.,10
OC1/C(=C/c2ccc(Cl)cc2Cl)N2CCC1CC2 (configuration not stated),-0.7,.,-6%,-1%[15.4 µM],-1.1,9
O=C(Nc1ccc(F)cc1)N1Cc2ccccc2-n2nncc2C1,-0.1,-2.2%,.,-111%[inhibitor],.,0
CC1(O)CCC2C3CCC4=CC(=O)CCC4=C3C=CC21C (configuration not stated),0.6,.,-30%,-2%,.,-10
Cc1ccccc1N1C(=O)NC(=O)/C(=C\c2cc(Br)c(N3CCOCC3)o2)C1=O,1.3,-1.4%,-8%,-26%[15.4 µM],?,1
CN(C)CC1CSCCC1(O)c1ccccc1Cl (configuration not stated),0.1,-1.7%,14%,-2%,2.1,-6
CC(=NCc1ccco1)c1c(O)n(-c2ccccc2)c(=O)[nH]c1=O,-1.2,-0.2%,3%,19%,5.2,17
CN1CCC(N(C)Cc2cccnc2)CC1,0.4,-1.1%,5%,-10%,-1.4,1
COc1ccc(C(=O)CC(c2ccc3c(c2)OCO3)c2c(O)c3ccccc3oc2=O)cc1OC (configuration not stated),0.5,-0.2%,.,3%,.,3
COc1ccc(/C=C/C(=O)NC(=S)N2C[C@H]3C[C@H](C2)c2cccc(=O)n2C3)cc1,.,0.3%,-2%,.,-0.9,.
Nc1ccc(S(=O)(=O)N2CC3CC(C2)c2cccc(=O)n2C3)cc1 (configuration not stated),-0.6,0.9%,7%,-64%[inhibitor],1.3,4
CC(C)CC(NS(=O)(=O)c1ccc2c(c1)oc(=O)n2C)C(=O)N1CC=C(c2ccccc2)CC1 (configuration not stated),0.1,-0.9%,-17%,?,2.5,-5
Cc1ccc(N)c(C(=O)c2ccc(Br)cc2)c1,0.5,.,-22%,-15%,-1.0,1
CCc1ccc(NP(=O)(Oc2ccccc2F)Oc2ccccc2F)cc1,2.0,.,13%,-4%[15.4 µM],-4.5,-10
COc1ccc(-n2c(/C=C/c3ccc(O)c(OC)c3)nc3ccccc3c2=O)cc1,-0.3,-4.4%,?,2%,?,5
C[C@]12CCC3C(CC[C@H]4C[C@@H](O)CC[C@]34C)C1C[C@@H](O)[C@H]2O (some centres not stated),-0.3,.,3%,15%,.,0
ClC1C(Cl)C(Cl)C(Cl)C(Cl)C1Cl (configuration not stated),1.5&28,0.8%&-4.8%,11%&-8%,.,2.2&-0.4,48&29
C[C@H]1OC[C@@H](C[N+](C)(C)C)O1,4.0,1.5%,7%,.,-1.2&-1.1,-7

# Compound profiles (already shown):
# COc1ccc(C(=O)CC(c2ccc3c(c2)OCO3)c2c(O)c3ccccc3oc2=O)cc1OC (configuration not stated) in the list: TRPML1 agonist: 0.5; ClpP mod: -0.2%; gsp antagonist: .; gsp ag: 3%; Menin-MLL FL inh: .; TRPML1 blocker: 3
# Nc1ccc(S(=O)(=O)N2CC3CC(C2)c2cccc(=O)n2C3)cc1 (configuration not stated) in the list: TRPML1 agonist: -0.6; ClpP mod: 0.9%; gsp antagonist: 7%; gsp ag: -64%[inhibitor]; Menin-MLL FL inh: 1.3; TRPML1 blocker: 4
# CCc1ccc(NP(=O)(Oc2ccccc2F)Oc2ccccc2F)cc1 in the list: TRPML1 agonist: 2.0; ClpP mod: .; gsp antagonist: 13%; gsp ag: -4%[15.4 µM]; Menin-MLL FL inh: -4.5; TRPML1 blocker: -10

# (next part)
SMILES,TRPML1 agonist,ClpP mod,gsp antagonist,gsp ag,Menin-MLL FL inh,TRPML1 blocker
COc1ccc(CN2C(=O)NC(=O)/C(=C\c3ccco3)C2=O)cc1,1.3,.,5%,2%,?,4
ClCCN1CCN(c2ccnc3cc(Cl)ccc23)CC1,0.0,-1.0%,9%,?,-3.8,3
CCOC(=O)c1ccccc1NC(=O)c1c(O)[nH]c(=O)[nH]c1=O,-0.9,-9.9%,4%,?,.,17
CSc1ccc(C(=O)C2CCCN(C)C2)cc1 (configuration not stated),0.7,.,6%,4%,-1.6,12
CCn1c(=O)n(CC(=O)N2CCC3(CC2)OCCO3)c(=O)c2ccccc21,-0.2,?,1%[15.4 µM],8%,2.4,-12
O=C(CCC(=O)N1C[C@H]2C[C@@H](C1)c1cccc(=O)n1C2)NCc1ccccc1,.,-4.6%,9%,.,-0.8,.
Clc1ccccc1N1CCN(Cc2ccc3c(c2)OCO3)CC1,2.4,1.5%,4%,3%,-0.5,10
O=C(C[N+]12CCC(CC1)C(CO)C2)c1ccc(Br)cc1 (configuration not stated),0.7,.,13%,-61%[inhibitor],6.4,12
COC(=O)C1=C(c2cccc(OCc3ccccc3)c2)C[C@@H]2CC[C@H]1N2C(=O)NNCc1ccccc1,0.5,-0.3%,-11%,?,.,58
COc1ccc(CCNC(=O)N2c3ccccc3Sc3ccccc32)cc1,2.5,-0.8%,?,-24%,.,2
COc1ccc(Cn2c(=O)oc3ccc(C)cc32)cc1OC,1.1,0.6%,?,2%,0.4,-8
COc1ccc(-n2c(O)c(/C=C3\C=Nc4ccc(Br)cc43)c(=O)[nH]c2=O)cc1,0.0,.,-29%,12%,6.3,82
COC(=O)c1c(C)n(Cc2ccco2)c2ccc(O)cc12,0.3,-2.4%,10%,-27%,2.6,11
O=[N+]([O-])O[C@H]1CO[C@H]2[C@@H]1OC[C@H]2O[N+](=O)[O-],0.2,-1.2%,-7%,.,.,9
O=C(C[n+]1ccn(CCCNP2(=O)C=C(c3ccccc3)OC(c3ccccc3)=C2)c1)c1ccccc1,-0.4,-1.4%,2%,19%,-0.2,-1
COc1ccccc1CCNC1C2CC3CC(C2)CC1C3 (configuration not stated),-0.5,-0.3%,8%,?,2.5,-5
Oc1ccc(/C=N/NP(=S)(c2ccccc2)c2ccccc2)cc1,2.5,-3.7%,-19%,10%,0.6,40
CCOP(=S)(OCC)SCC(=O)NC(C)(CC)C(=O)O (configuration not stated),0.7,-1.8%,4%,1%,1.2,15
CCOc1ccc2nc(NC(=O)c3cccn(Cc4ccccc4Cl)c3=O)sc2c1,1.2,-8.7%,.,.,.,24
